StopGo reporter – FMDV 2A StopGo reporter, luciferase signal; human cells with a luciferase reporter of 2A StopGo recoding; control for the full effect not named in the record; Potency, µM (highest dose often 57.9 µM), for inactives: at the top dose signal change, negative = less light; hit rate 1.2% among 410,000; active = well fitted falling curve with a large enough effect; inconclusive = small, poorly fitted or top-dose-only effect; inactive = no such curve, though single readings can be large or run the other way; tested in HEK293T cells; note: % is set by controls: 0 for no effect and ±100 for the full control effect; nearly all actives have a fitted effect of over 45% in size; luciferase light after 4 h
SARS PLpro yeast – blocks SARS-CoV papain-like protease in a yeast assay; hit rate 0.19% among 330,000; Potency, µM (series often up to 32.9 µM), inactives show at the highest dose activity, positive = growth rescue; AID 485353; S. cerevisiae expressing SARS-CoV PLpro, growth rescue; control for the full effect not named in the record; note: 0% is about no effect; nearly all actives have a fitted effect of over 55% in size; growth read by luminescence after 48 h
RE007 growth inh – less growth of the S. pombe RE007 Vpr strain. S. pombe RE007 Vpr strain, BacTiter-Glo ATP luminescence, 24 h; control for the full effect not named in the record. Potency, µM (top dose mostly 92.2 µM), without a hit: at the highest dose activity change, negative = less growth. hit rate 0.21% among 360,000; active = well fitted falling curve with a large enough effect; inconclusive = small, poorly fitted or top-dose-only effect; inactive = no such curve, though single readings can be large or run the other way;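 note: % is set by controls: 0 for no effect and ±100 for the full control effect; nearly all actives have a fitted effect of over 50% in size; the assay follows cell death caused by Vpr and the record does not say whether a fall means rescue or toxicity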
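Fission yeast RE007 carrying one integrated HIV-1 vpr copy, seeded at OD 0.01 in PMG+AL medium with 23 nL pinned compound. Grown 24 h at 30 degrees; viability read by BacTiter-Glo luminescence after 5 min.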
NS1 function inh – blocks influenza NS1 protein function; hit rate 0.4% among 270,000; Potency, µM (top dose mostly 46.1 µM), inactives show at the top dose activity, positive = more growth; S. cerevisiae slowed by influenza A NS1, growth recovery by OD600; note: actives are rising curves; nearly all actives have a fitted effect of over 50% in size
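Compounds were scored for reversing the slow growth caused by influenza A NS1 in S. cerevisiae, measured by optical density at 600 nm. Assay medium contained 2% galactose at pH 6.0; NS1-free yeast of the same strain were the positive control.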
Lassa entry inh – Lassa virus entry inhibition | hit rate 1.2% among 300,000 | Potency, µM (highest dose often 37.9 µM), without a hit: at the highest dose activity change, negative = inhibition, hits mostly inhibitors | Lassa virus pseudotype entry inhibition, cell reporter; control for the full effect not named in the record; active means well fitted inhibition curve with a large enough effect; inconclusive means small, poorly fitted or top-dose-only effect, or effect the other way; inactive means flat fitted curve, though single readings scatter; tested in HEK293 cells; note: % is set by controls: 0 for no effect and ±100 for the full control effect; nearly all actives have a fitted effect of over 50% in size; luciferase read-out
MARV entry inh – inhibitors of Marburg virus binding or cell entry; Marburg virus pseudotyped entry inhibition, cell reporter; control for the full effect not named in the record; about a third of the inactives were read at about 46 µM; Potency, µM (top dose mostly 37.8 µM), without a hit: at the top dose activity change, negative = inhibition, most hits filed as inhibitors; hit rate 1.8% among 300,000; active = well fitted inhibition curve with a large enough effect; inconclusive = small, poorly fitted or top-dose-only effect, or effect the other way; inactive = flat fitted curve, though single readings scatter; tested in HEK293 cells; about a fifth of its hits are not listed in these tables; note: % is set by controls: 0 for no effect and ±100 for the full control effect; luciferase read-out
Cruzain Triton – blocks cruzain activity in presence of Triton detergent; P25779; purified cruzain, Z-FR-AMC fluorescence, 0.01% Triton; Potency, µM, inactives show max response, negative = inhibition, usual class: inhibitors; hit rate 0.43% among 200,000; active = well fitted curve in the direction sought with a large enough effect; inconclusive = small, poorly fitted or top-dose-only effect, or another doubt; inactive = no such curve, though single readings can be large; an effect the other way counts as inactive or inconclusive;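 note: plate controls were neutral wells for no effect and buffer without enzyme for full effect; nearly all actives have a fitted effect of over 40% in size; top concentration of the series not given in the record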
Target sequence (P25779 123-467 limits assumed): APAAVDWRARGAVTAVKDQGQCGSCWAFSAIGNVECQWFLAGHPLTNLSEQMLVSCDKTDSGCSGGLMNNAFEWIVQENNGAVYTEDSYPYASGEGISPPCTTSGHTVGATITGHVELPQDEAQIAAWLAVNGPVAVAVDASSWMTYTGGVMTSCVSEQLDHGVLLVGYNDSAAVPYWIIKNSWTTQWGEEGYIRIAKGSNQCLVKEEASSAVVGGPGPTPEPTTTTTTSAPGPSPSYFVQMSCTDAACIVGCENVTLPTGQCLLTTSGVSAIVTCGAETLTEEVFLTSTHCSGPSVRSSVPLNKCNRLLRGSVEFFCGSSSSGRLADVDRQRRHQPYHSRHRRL
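Steps: dispense cruzain (1.5 nM final) in acetate buffer pH 5.5 with DTT and 0.01% Triton X-100; pin-transfer compounds; incubate 15 min RT; add Z-FR-AMC (2 uM final); read fluorescence every 30 s, using the 60 s intensity change.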
Cruzain inh noDet – cruzain (T. cruzi) inhibition without detergent. purified cruzain, Z-FR-AMC fluorescence, no detergent. Potency, µM, inactives show max response, negative = inhibition, most hits filed as inhibitors. AID 1476. hit rate 2.3% among 200,000; active = well fitted curve in the direction sought with a large enough effect; inconclusive = small, poorly fitted or top-dose-only effect, or another doubt; inactive = no such curve, though single readings can be large; an effect the other way counts as inactive or inconclusive;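 note: plate controls were enzyme without inhibitor for no effect and buffer without enzyme for full effect; nearly all actives have a fitted effect of over 40% in size; top concentration of the series not given in the record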
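Detergent-free condition (0.00005% Triton X-100) in acetate buffer pH 5.5 with DTT. 1.5 nM enzyme and compound were pre-mixed 15 min, then 2 uM Z-FR-AMC substrate added; reaction progress from fluorescence change between first and third reads (60 s).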
* = called active by the depositor; ? = inconclusive; nt = not tested or not shown; & = joins results of further samples; [ ] = another dose, or the depositor's remark. Unless noted, calls come from the whole dose curve; as a rule, active means well fitted rising curve with a large enough effect; inconclusive means small, poorly fitted or top-dose-only effect; inactive means no such curve, though single readings can be large or run the other way. Potency is the fitted concentration of half-maximal effect.

mol	StopGo reporter	SARS PLpro yeast	RE007 growth inh	NS1 function inh	Lassa entry inh	MARV entry inh	Cruzain Triton	Cruzain inh noDet
Nc1ncnc2c1ncn2[C@@H]1O[C@H](COP(=O)(O)O)[C@@H](O)[C@H]1O	5%	-34%	?	-7%	nt	nt	nt	nt
CCOC(=O)C1(CCc2ccccc2)CCN(Cc2csc(C(C)=O)c2)CC1	13µM*	-1%	-21%	2%	-14%	?	nt	nt
CCOC(=O)COc1ccc([N+](=O)[O-])cc1	-14%	-12%	8%	-35%	2%	4%	-0.3%	3%
CCCOc1ccc(C(=O)NCCN2CCOCC2)cc1	6%	3%	4%	6%	7%	16%	nt	nt
COc1ccccc1C(=O)Nc1ccc2c3c(cccc13)CC2	35%[activator]	-1%	5%	-7%	?	?	-4.5%	-7%
O=C(/C=C/c1cccc(F)c1)N1CCN(c2ncccn2)CC1	27%	4%	-12%	nt	21%[46.1 µM]	?	nt	nt
Cc1nc2c(c(C)nn2-c2ccccc2)c(C)c1CCC(=O)N1CCC2(CC1)OCCO2	?	-1%	2%	-2%	3%	10%	-4.4%	?
CN1CCN(Cc2nc3ccccc3c(=O)n2Cc2nc(-c3ccc([N+](=O)[O-])cc3)cs2)CC1	-13%	-13%	-5%	20%	?	?	-21%	-25%
N#C/C(=C\c1ccccc1C(F)(F)F)C(=O)Nc1ccccc1F	48%[activator]	10%	nt	3%	16%	?	-4.9%	3%
Cc1ccc(NC(=O)COC(=O)c2cccc3c(=O)c(C)c(-c4ccccc4)oc23)cc1	7%	-2%	-15%	12%	?	?	-4.4%	-9%
C=CCN(c1nc(C)cc(OC)n1)S(=O)(=O)c1ccccc1	-8%	1%	-12%	-1%	nt	nt	nt	nt
O=C(NC(NNc1ccc([N+](=O)[O-])cc1)(C(F)(F)F)C(F)(F)F)c1ccc(Cl)cc1	?	-28%	2%	-172%	?	?	-13%	4%
C=CCc1cccc2cc(C(=O)N3CCOCC3)c(=O)oc12	-9%	4%	6%	-11%	nt	nt	nt	nt
CC(=O)N1c2c(cc(Br)cc2S(=O)(=O)NCC2COc3ccccc3O2)CC1C (stereo not drawn)	33%[activator]	-19%	-1%	2%	5%	-11%&-11%	-1.0%	-2%
CCCCCCC(=O)NCC(=O)OCC(=O)c1ccccc1	-20%	1%	-6%	-5%	0%	12%	?	-27%
COc1cc(CNc2ccc(CNc3ncn[nH]3)cc2)ccc1OCC(=O)NC(C)(C)C	?	7%	-6%	?	1%	-31%	-2.0%	-9%
COc1ccc(NC2=C(C(C)=O)C(c3ccc(OC)cc3)C(C(C)=O)C(C)(O)C2)cc1 (stereo not drawn)	7%	0%	1%	-2%	?	19%[46.1 µM]	nt	nt
Cc1ccc(S(=O)(=O)N2CCN(Cc3cccnc3)CC2)cc1	0%	-1%	6%	5%	nt	nt	nt	nt
Cc1nonc1N1CCN(Cc2cn[nH]c2-c2ccc(F)cc2F)CC1	-18%	-1%	-6%	2%	?	?	nt	nt
O=C(N/N=C/c1ccc([N+](=O)[O-])cc1)c1ccc2nc[nH]c2c1	6%	-5%	18%	9%	-13%	?	-5.4%	5%
COc1ccc(C2(C(=O)NCC3CCCO3)CCOCC2)cc1 (stereo not drawn)	8%	10%	0%	-21%	-17%	-2%	7.5%	5%
CC(=O)c1cccc(NC(=O)C(C)OC(=O)CCN=C2NS(=O)(=O)c3ccccc32)c1 (stereo not drawn)	8%	4%	-7%	nt	4%	-2%	nt	nt
CCCNC(=O)C1CCN(Cc2cc3ccccc3n2Cc2ccccc2)CC1	-29%	nt	nt	nt	?	nt	0.8%	14%
CN1CCCC(OC(=O)c2cccc(S(=O)(=O)N3CCCCCC3)c2)C1 (stereo not drawn)	-14%	8%	3%	3%	-1%	-27%[46.1 µM]	nt	nt
CCCn1nc(C(=O)NNC(=O)c2ccc(C)c(C)c2)c2ccccc2c1=O	-11%	-5%	-5%	nt	12%	-11%	nt	nt
COc1ccc(OCC(=O)Nc2c(C(=O)N3CCN(C)CC3)oc3ccccc23)cc1	-8%	?	-5%	-11%	nt	nt	nt	nt
COc1ccccc1Cc1nc2ccccc2nc1SCC(=O)Nc1ccccc1C(F)(F)F	-10%	nt	nt	nt	29%[46.1 µM]	nt	0.9%	-2%
C=CCn1c(SCc2c(C)noc2C)nc2sc(C)c(C)c2c1=O	-20%	-12%	0%	0%	?	?	-3.1%	15%
Cc1cc(-c2ccc(C)c(S(=O)(=O)NCC3CCN(Cc4ccc(F)cc4)CC3)c2)on1	-10%&-4%	0%	0%	-6%	?	?	2.0%	2%
C=CCN(CC=C)C(=S)Nc1ccccc1	17%	?	-5%	4%	?	11%	4.2%	-7%
CC(C)c1nc(-c2c(N)n(C)c(=O)n(C)c2=O)sc1C(=O)C(C)(C)C	-8%	-4%	0%	4%	?	9%	4.7%	4%
CC(NC(=O)CNC(=O)c1cccc(Cl)c1)c1ccccc1 (stereo not drawn)	8%	-1%	1%	3%	nt	nt	nt	nt
CC(NCC(=O)Nc1ccccc1C(=O)NC1CC1)c1ccco1 (stereo not drawn)	2%	4%	12%	nt	2%	16%[46.1 µM]	nt	nt
CC1CCC(NC(=O)c2ccc(CS(=O)(=O)c3cccc(C(F)(F)F)c3)o2)CC1 (stereo not drawn)	-25%	nt	nt	nt	-1%[46.1 µM]	?	-0.1%	?
Cc1c(NC(=O)/C(C#N)=C/c2ccc(-c3ccc(Cl)c(Cl)c3)o2)c(=O)n(-c2ccccc2)n1C	?	-19%	-13%	21%	?	-28%	-7.7%	6%
COC(=O)c1ccc(Oc2nc3c(c(=O)n(C)c(=O)n3C)n2C(C)C)cc1	-19%	nt	nt	nt	-6%[46.1 µM]	-31%[46.1 µM]	-0.1%	9%
COc1ccc(OC)c(NCc2cccn2-c2nnc(N3CCC(C)CC3)s2)c1	23%	nt	nt	nt	-20%[46.1 µM]	nt	-0.7%	-7%
COc1ccc(-c2csc(NC(=O)COc3ccc(N(C)S(=O)(=O)c4ccc(C)cc4)cc3)n2)cc1	?	-7%	-3%	?	-2%	?	0.6%	7.9µM*
Cc1ccccc1C1=NC(C(F)(F)F)(C(F)(F)F)c2c(n(C)c(=O)n(C)c2=O)N1	-23%	-4%	nt	16%	-8%	-3%	-3.0%	9%
N/C(=N\N=C\c1ccc2c(c1)OCO2)c1nonc1N	-36%	1%	-19%	7%	?	?	-6.1%	-8%
O=C(c1ccc2nc(-c3ccco3)c(-c3ccco3)nc2c1)N1CCN(c2ncccn2)CC1	-24%	-7%	16%	2%	-18%	?	25µM*	?
Cc1nc2ncnn2c(C)c1CCC(=O)NCCC1=CCCCC1	-1%	-3%	1%	12%	10%	15%	2.2%	-6%
C(C#CCCCCCCCCC[n+]1ccccc1)#CCCCCCCCCC[n+]1ccccc1	18µM*	nt	7.9µM*	-127%	?	2.5µM*	nt	nt
FC(F)(F)c1cc(C(F)(F)F)c2ccc(N3CCN(c4ccc(Cl)cc4)CC3)nc2n1	5%	2%	5%[3.69 µM]	8%	6%	4%	-4.2%	-8%
CC(NC(=O)CN1CCN(c2ccccc2F)CC1)c1ccccc1 (stereo not drawn)	2%	25%	-3%	4%	-10%[46.1 µM]	3%[46.1 µM]	nt	nt
CSCCC(N=C1NS(=O)(=O)c2ccccc21)C(=O)NCCc1ccccc1 (stereo not drawn)	-3%	0%	-13%	5%	4%	23%	nt	nt
CCNC(=O)COn1c(SCC(=O)NCC)nc2ccccc2c1=O	0%	4%	-19%	7%	19%	0%	1.3%	0%
Cn1c2ccccc2c(=O)c2c(=O)n(Cc3ccco3)c(-c3ccc(F)cc3)nc21	-14%	0%	5%	4%	-19%	-24%[46.1 µM]	nt	nt
O=C(COC(=O)c1ccccc1SCC(=O)N1CCCC1)NCc1ccccc1	14%	2%	20%	nt	-13%	13%	nt	nt
O=c1c2c(-c3ccc([N+](=O)[O-])cc3)csc2nc2n1CCCCC2	-19%	-2%	8%	-2%	?	?	nt	nt

(more compounds)
mol	StopGo reporter	SARS PLpro yeast	RE007 growth inh	NS1 function inh	Lassa entry inh	MARV entry inh	Cruzain Triton	Cruzain inh noDet
CCOC(=O)C1(Cc2ccccc2Cl)CCN(C(=O)CCn2ccnc2C)CC1	34%[activator]	-1%	-5%	-5%	nt	nt	nt	nt
Cn1c(CSCc2ccc(F)cc2)nnc1SCC(=O)N1CCN(c2ccccc2)CC1	?	-16%	19%	4%	?	?	1.0%	?
CC(C)=C1C2CCC1C1C(=O)N(c3nc(-c4ccc(C(C)C)cc4)c(C)s3)C(=O)C21 (stereo not drawn)	-9%	-23%	24%	27%	?	?	-2.7%	-26%
CC(C)CN1CCN(Cc2ccccc2C(F)(F)F)CC1CCO (stereo not drawn)	4%	0%	2%	-3%	12%[46.1 µM]	-1%[46.1 µM]	nt	nt
O=C(NC(Cc1ccc(O)cc1)C(=O)N=Nc1c(O)[nH]c2ccccc12)c1ccccc1 (stereo not drawn)	12%	nt	16%	nt	-7%[46.1 µM]	6%	nt	nt
Cc1cccc(C(=O)Nc2cccc(OCc3cc(=O)n4c(C)csc4n3)c2)c1	-5%	nt	nt	nt	-1%[46.1 µM]	-4%[46.1 µM]	1.3%	-4%
COCCCNC(=O)CN(c1cccc(Cl)c1)S(C)(=O)=O	-10%	-2%	-11%	?	-1%	10%	7.5%	10%
CCOc1ccc(-n2c(=O)c3c(C)c(C)sc3n(CC(=O)Nc3ccc(CC)cc3)c2=O)cc1	-12%	nt	nt	nt	-12%[46.1 µM]	-5%[46.1 µM]	1.0%	2%
CCCN1CCN(CC(=O)NCC(=O)Nc2cccc(C)c2C)CC1	-21%	-5%	-11%	nt	-2%	6%[46.1 µM]	nt	nt

Assay outcomes (PubChem BioAssay)
